NPYLR7 agonist: activates Aedes aegypti NPYLR7 receptor; activation, % at 10 µM; AID 1259423; HEK293T NPYLR7/Galpha15, GCaMP6s calcium fluorescence; 270,000 compounds, 0.15% hits; in the data active = activation above about 40%;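 note: 0% = vehicle and 100% = reference agonist at the receptor; some compounds past the cut are filed as inactive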
NPYLR7 agonist max-min: also measured in NPYLR7 agonist; calls as there; activation, %; measured here: Max-Min RFU normalised activation; some inactives read as strong as hits;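 span of the calcium signal over five minutes; 0% = vehicle and 100% = native peptide agonist; compound fluorescence can raise it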
* hit, by the source's call; & = joins results of further samples.

[1] COc1cccc(Cc2nsc(N3CCCC3C(=O)N3CCN(C(c4ccccc4)c4ccccc4)CC3)n2)c1 (stereo not drawn)
[2] Cc1nc2c(OCc3ccc(C#N)cc3)cccn2c1N(C)C(=O)CCC1CCCC1
[3] Cc1ccccc1C(=O)NNC(=O)CN1C(=O)c2ccccc2C1=O
[4] CCOCCCNC(=O)c1cc(NC(=O)/C=C/c2ccc([N+](=O)[O-])cc2)ccc1N1CCC(Cc2ccccc2)CC1
[5] CCOC(=O)N1[C@@H](c2ccco2)[C@@H](C(=O)O)C[C@]12CCCCN(C)C2=O
[6] CC1(C)OC2OC(C(=O)NCCC(=O)Nc3nccs3)C3OC(C)(C)OC3C2O1 (stereo not drawn)
Screen / compound no. | 1 | 2 | 3 | 4 | 5 | 6
NPYLR7 agonist | 14 | -5 | -1 | 20 | 6 | 1
NPYLR7 agonist max-min | 16 | -14 | -6 | 14 | 14 | 7

[7] CCC(C(=O)N(CC(=O)N(Cc1ccccc1)Cc1sccc1C)CC(C)C)c1ccccc1 (stereo not drawn)
[8] Cc1nc(NCCNC(=O)Nc2ccc(F)c(Cl)c2)cc(-n2cccn2)n1
[9] CCN(CCN1C(=O)CSC1c1ccc(F)cc1F)C(=O)C1CC1 (stereo not drawn)
[10] Cn1[nH]c(CP(=O)(c2ccccc2)c2ccccc2)cc1=O
[11] COc1ccc(-c2[nH]ncc2CNCC(C)(C)N2CCOCC2)cc1F
[12] COc1cc(C2C(C(=O)OC3CCCC3)=C(C)NC3=C2C(=O)CCC3)cc(OC)c1O (stereo not drawn)
Screen / compound no. | 7 | 8 | 9 | 10 | 11 | 12
NPYLR7 agonist | 13 | -8 | -4 | -2&1 | -2 | -11
NPYLR7 agonist max-min | 10 | -14 | 0 | -6&-1 | -6 | -16

Ordered by SMILES length (falling): some entries from above.
[4] CCOCCCNC(=O)c1cc(NC(=O)/C=C/c2ccc([N+](=O)[O-])cc2)ccc1N1CCC(Cc2ccccc2)CC1
[12] COc1cc(C2C(C(=O)OC3CCCC3)=C(C)NC3=C2C(=O)CCC3)cc(OC)c1O (stereo not drawn)
[7] CCC(C(=O)N(CC(=O)N(Cc1ccccc1)Cc1sccc1C)CC(C)C)c1ccccc1 (stereo not drawn)
[6] CC1(C)OC2OC(C(=O)NCCC(=O)Nc3nccs3)C3OC(C)(C)OC3C2O1 (stereo not drawn)
[8] Cc1nc(NCCNC(=O)Nc2ccc(F)c(Cl)c2)cc(-n2cccn2)n1
[9] CCN(CCN1C(=O)CSC1c1ccc(F)cc1F)C(=O)C1CC1 (stereo not drawn)
Screen / compound no. | 4 | 12 | 7 | 6 | 8 | 9
NPYLR7 agonist | 20 | -11 | 13 | 1 | -8 | -4
NPYLR7 agonist max-min | 14 | -16 | 10 | 7 | -14 | 0

Remaining list, next part.
[13] CN1C(=CC=Nc2cc(Cl)c([N+](=O)[O-])cc2O)C(C)(C)c2ccccc21
[14] O=C(CSc1ccc2nnc(CCNC(=O)c3ccccc3)n2n1)NC1CCCCC1
[15] O=C(NCCc1nnc2ccc(NCCCN3CCOCC3)nn12)c1ccccc1
[16] NC(=S)NCC1CCCO1 (stereo not drawn)
[17] CC(C)CN(Cc1cnn(C)c1)Cc1cccc2nonc12
[18] CCOCCCN(CC(=O)N(Cc1cccn1Cc1ccc(F)cc1)C1CCCCC1)C(=O)c1ccc(Cl)cc1
Screen / compound no. | 13 | 14 | 15 | 16 | 17 | 18
NPYLR7 agonist | -3 | 1 | 7 | -14 | 16 | 0
NPYLR7 agonist max-min | -6 | -12 | -4 | -17 | 9 | 6

[19] Cc1cn2c3c(=O)n(CC(=O)OCc4ccccc4)c(=O)n(C)c3nc2n1CC(C)C
[20] Cc1ccc(-n2nnc3c(=O)n(CC(=O)c4ccc(Cl)cc4)cnc32)cc1C
[21] CC1(C)COCCN1C(=O)Cc1c[nH]c2ccccc12
[22] NC(=O)C1CCCN(c2ccc(C(=O)OCc3ccc4c(c3)OCO4)cc2)C1 (stereo not drawn)
[23] CC(C)NC(=O)c1nnc2n1CCN(C(=O)C1(c3ccc(Cl)cc3)CCCC1)C2
[24] CNCCCC1c2ccccc2C=Cc2ccccc21
Screen / compound no. | 19 | 20 | 21 | 22 | 23 | 24
NPYLR7 agonist | 13 | -1 | -1 | 4 | 7 | 1&0
NPYLR7 agonist max-min | 10 | -7 | 2 | 3 | 6 | 10&1

[25] CSCCC1NC(=S)N(CCC2CC3CCC2C3)C1=O (stereo not drawn)
[26] O=C1CC(c2nc3ccccc3[nH]2)CN1c1cccc2ccccc12 (stereo not drawn)
[27] CCOC(=O)CNC(=O)CCc1c(C)nn(-c2nc(C)c(C)c(=O)[nH]2)c1C
[28] O=C(Cn1cc2c(n1)CCCCC2)N1CCCC1
[29] CCC(=NC1CCCCCC1)c1c(O)n(CC)c(=S)n(CC)c1=O
[30] O=C(NCc1nc(C2CC2)no1)Nc1ccc(Oc2ccccc2)cc1
Screen / compound no. | 25 | 26 | 27 | 28 | 29 | 30
NPYLR7 agonist | 0 | 2 | 10 | 2 | -1 | 6
NPYLR7 agonist max-min | -9 | 3 | 4 | 0 | -1 | 4

[31] O=C(C1CCOC1)N1CCCC1c1ncc(-c2ccccc2Cl)[nH]1 (stereo not drawn)
[32] CC(C)c1ccc(Cn2ccc3c4c(N)nc(NC5CC5)nc4ccc32)cc1
[33] O=[N+]([O-])c1ccc(CSc2ncnc3c2nnn3-c2cccc(Cl)c2)cc1
[34] N#Cc1nc(Cl)c(Cl)c(NS(=O)(=O)c2ccc(Cl)cc2)c1Cl
[35] CC(=O)c1cccc(NS(=O)(=O)c2cc(C(=O)Nc3ccccc3C)ccc2C)c1
[36] CCOc1ccc2cc(-c3csc(Nc4ccc(C)cc4)n3)c(=O)oc2c1
Screen / compound no. | 31 | 32 | 33 | 34 | 35 | 36
NPYLR7 agonist | 6 | 13 | 18 | 7 | 19 | 1
NPYLR7 agonist max-min | 2 | 2 | 21 | 2 | 15 | -3

[37] O=C(O)c1ccnc(Br)c1
[38] CCOC(=O)c1cc(Cc2ccccc2)sc1NC(=O)c1ccc(SC(F)(F)F)cc1
[39] Cc1ncsc1CCN(C)C1CCCNC1 (stereo not drawn)
[40] Cc1[nH]c(C2CC(=O)N(CC(C)C)C2)nc1-c1cccs1 (stereo not drawn)
[41] COc1cc(C2C3=C(CCCC3=O)OC(=N)C2C#N)cc([N+](=O)[O-])c1O (stereo not drawn)
[42] COc1cc(OC)nc(C(NC(=O)C2CCN(Cc3cccn3C)CC2)c2ccc(Cl)cc2)n1 (stereo not drawn)
Screen / compound no. | 37 | 38 | 39 | 40 | 41 | 42
NPYLR7 agonist | -2 | 5 | 14&-1 | 1 | -5 | -13
NPYLR7 agonist max-min | 6 | 2 | 10&-3 | 0 | -12 | -18

[43] Cc1cc(C)c(-c2csc(NC(=O)c3ccc4c(c3)CCN4S(C)(=O)=O)n2)cc1C
[44] CC(=O)N1CCN(C(=O)Cc2cc(-c3ccc(F)cc3)on2)CC1
[45] CC1CCc2c(sc(NC(=O)Cc3ccccc3)c2C(=O)Nc2ccccc2)C1 (stereo not drawn)
[46] COc1ccc(O)cc1-c1nccn1Cc1cccc(-n2cccn2)c1
[47] CC1CCC(NC(=O)CN2C(=O)NC3(CCCCC3C)C2=O)CC1 (stereo not drawn)
[48] CN(Cc1ccccc1)c1ncc(S(C)(=O)=O)c(C2CCCNC2)n1 (stereo not drawn)
Screen / compound no. | 43 | 44 | 45 | 46 | 47 | 48
NPYLR7 agonist | 0 | 5 | -6 | -2 | 6 | 18
NPYLR7 agonist max-min | -2 | 5 | -16 | -5 | 6 | 3

[49] CC(C)N(C(=O)CSc1nc2ccccc2s1)c1ccccc1
[50] COc1cccc(C2CNC3(CCCC3)c3[nH]c4ccccc4c32)c1OC (stereo not drawn)
[51] CC1(C(=O)NC2CCCCCC2)CCN1C(=O)c1ccccc1CCc1ccccc1 (stereo not drawn)
[52] Cc1cc(NC(=O)CN(C)C(=O)c2cccn2Cc2cccs2)no1
[53] COc1cccc(CN2CCN(C(=O)c3nn(C)c(=O)c4ccccc34)CC2)c1
[54] CCN(CC)C(=O)Cn1cc(C(=O)NCc2csc(Cc3ccccc3)n2)nn1
Screen / compound no. | 49 | 50 | 51 | 52 | 53 | 54
NPYLR7 agonist | 1 | 15 | 6 | -5 | -3 | -7
NPYLR7 agonist max-min | 0 | 9 | 4 | -6 | -7 | -8

[55] CC(C)Oc1ccc(CN2CCC2(C)C(=O)NCc2cccc(C(F)(F)F)c2)cc1 (stereo not drawn)
[56] COc1ccc(-c2cnc3ncnn3c2NCc2cc(C(F)(F)F)cc(C(F)(F)F)c2)cc1OC
[57] CCC1(C2CCN(C(=O)c3ncccc3C)CC2)NC(=O)NC1=O (stereo not drawn)
[58] CCOC(=O)c1sc(N)c(C(=O)OCC)c1CSc1nc(C)cs1
[59] CC1CN(c2cc(Cl)nc(SCC(=O)NCCCN3CCOCC3)n2)CCN1C(=O)c1cccc(F)c1 (stereo not drawn)
[60] COc1ccc(C(C)NC(=O)Cc2c(C)nc(N)nc2C)cc1F (stereo not drawn)
Screen / compound no. | 55 | 56 | 57 | 58 | 59 | 60
NPYLR7 agonist | 8 | 13 | 13 | 0 | -3 | -4
NPYLR7 agonist max-min | 7 | 7 | 2 | 2 | 5 | -7

[61] Cn1ccc2c(-c3cc(N)nc(N4CCOCC4)n3)ccnc21
[62] Cc1nn(C)c2nc(C(C)C)cc(C(=O)Nc3ccc(Cl)cn3)c12
[63] N#CCCN1CCN(S(=O)(=O)c2ccc(S(=O)(=O)N3CCCC3)cc2)CC1
[64] Cc1cccc(C2=NC(=CC3=Cc4ccccc4OC3)C(=O)O2)c1
[65] CN(Cc1ccnc2ccccc12)C(=O)c1cccc(Cn2cccn2)c1
[66] O=C(CC1CCCC1)N(Cc1ccccc1)Cc1nccs1
Screen / compound no. | 61 | 62 | 63 | 64 | 65 | 66
NPYLR7 agonist | 21 | 5 | -1 | 2 | -6 | 11
NPYLR7 agonist max-min | 9 | 4 | -4 | 1 | -8 | 1

Reprinted at random: four compounds from above.
[66] O=C(CC1CCCC1)N(Cc1ccccc1)Cc1nccs1
[61] Cn1ccc2c(-c3cc(N)nc(N4CCOCC4)n3)ccnc21
[63] N#CCCN1CCN(S(=O)(=O)c2ccc(S(=O)(=O)N3CCCC3)cc2)CC1
[62] Cc1nn(C)c2nc(C(C)C)cc(C(=O)Nc3ccc(Cl)cn3)c12
Screen / compound no. | 66 | 61 | 63 | 62
NPYLR7 agonist | 11 | 21 | -1 | 5
NPYLR7 agonist max-min | 1 | 9 | -4 | 4

(list continues)
[67] O=C(O)CCCNC(=O)C12CC3CC(CC(C3)C1)C2
[68] C=CCN1N=C(c2ccccc2)Cn2c1nc1c2c(=O)n(C)c(=O)n1C
[69] CCc1c(C)c(C(=O)NCc2ccc3c(c2)OCO3)n(Cc2ccc(F)c(F)c2)c1C
[70] CN1C(=O)NC(c2ccccc2F)C2=C1CN(Cc1ccncc1)C2=O (stereo not drawn)
[71] CCCCCCOc1ccccc1-c1nc2ccccc2c(=O)n1Cc1ccc(OC)cc1OC
[72] COc1ccc(-c2nc(CO)cs2)cc1C
Screen / compound no. | 67 | 68 | 69 | 70 | 71 | 72
NPYLR7 agonist | 3 | 3 | -1 | 23 | 1 | 3
NPYLR7 agonist max-min | 10 | 5 | 2 | 24 | -2 | 7

Record cards, as listed above. Order of screens: NPYLR7 agonist, NPYLR7 agonist max-min
CCOCCCNC(=O)c1cc(NC(=O)/C=C/c2ccc([N+](=O)[O-])cc2)ccc1N1CCC(Cc2ccccc2)CC1 in the list: 20, 14
NC(=S)NCC1CCCO1 (stereo not drawn) in the list: -14, -17

(list continues)
[73] Cc1ccc2nc(-c3ccccc3F)c(NC(=O)C(C)(C)C)n2c1
[74] CCOC(=O)C1CCCN(C(=O)c2cccc(CSc3nc(CC)cc(N4CCCCC4C)n3)c2)C1 (stereo not drawn)
[75] COc1ccc(Oc2nc3ccccc3n3cnnc23)cc1
[76] CC(C)=C1CCC2(C)OC(=O)C(Cc3ccccn3)C12C (stereo not drawn)
[77] CCOc1ccc(C(C)C)cc1S(=O)(=O)n1cnc(C)c1
[78] COC(=O)CNC(=O)CC12CC3CC(CC(C3)C1)C2
Screen / compound no. | 73 | 74 | 75 | 76 | 77 | 78
NPYLR7 agonist | -3 | 6 | 27 | -6 | 6 | 5
NPYLR7 agonist max-min | 2 | -3 | 22 | -10 | 3 | 7

[79] CCOc1ccc(-c2ccc(C(=O)N3CCc4ccccc4C3c3ccccc3Cl)s2)cc1 (stereo not drawn)
[80] COC(=O)c1ccc(C=C2N=C(c3ccc(OC)c(OC)c3)OC2=O)cc1
[81] Cc1cnoc1C(=O)Nc1cc(C(C)(C)C)nn1C(C)(C)C
[82] Cc1cc(S(=O)(=O)Nc2ccc(F)c(Cl)c2)c(C)s1
[83] COc1ccc([C@H]2[C@@H](C(=O)N3CCC4(CC3)OCCCO4)c3ccccc3C(=O)N2Cc2ccccc2)cc1
[84] CCN(CC)c1cc(Cl)nc(SCc2cccc(C(=O)O)c2)n1
Screen / compound no. | 79 | 80 | 81 | 82 | 83 | 84
NPYLR7 agonist | 24 | 2 | 5 | -1 | -6 | 19
NPYLR7 agonist max-min | 14 | 8 | 2 | -3 | -11 | 23

[85] CCc1nc(Cl)c(C)c(N2CCN(CC3CC3)CC2)n1
[86] Nc1ccc(N2CCOCC2)c(Cl)c1
[87] CC(=O)N1CCC(N2CCC[C@H]2c2nc(-c3ccc(OC4CCCCC4)nc3)no2)CC1
[88] COCC1(C(=O)NCc2noc(-c3cccs3)n2)CCC1
Screen / compound no. | 85 | 86 | 87 | 88
NPYLR7 agonist | 0 | 4 | -7 | 13
NPYLR7 agonist max-min | -1 | 4 | -15 | 5

A portion of the library. The share of hits here may be higher or lower than overall.
